LANA-H2B inh = blocks KSHV LANA binding to histone H2A/H2B | Q9QR71 | cell-free LANA-H2A/H2B peptide, fluorescence polarization | inhibition, % (no concentration beside the values) | 0.6% of 320,000 active; in the data active means inhibition mostly above about 10%, no sharp cut-off; inactive means mostly below about 6.7%;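 further: stock transfer was 7.5 nL into about 10 µL; 0% = median of vehicle wells and 100% = median of positive control wells; one replicate is shown; the record names a cut of 25% in any replicate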
Target sequence (Q9QR71 whole entry, looked up): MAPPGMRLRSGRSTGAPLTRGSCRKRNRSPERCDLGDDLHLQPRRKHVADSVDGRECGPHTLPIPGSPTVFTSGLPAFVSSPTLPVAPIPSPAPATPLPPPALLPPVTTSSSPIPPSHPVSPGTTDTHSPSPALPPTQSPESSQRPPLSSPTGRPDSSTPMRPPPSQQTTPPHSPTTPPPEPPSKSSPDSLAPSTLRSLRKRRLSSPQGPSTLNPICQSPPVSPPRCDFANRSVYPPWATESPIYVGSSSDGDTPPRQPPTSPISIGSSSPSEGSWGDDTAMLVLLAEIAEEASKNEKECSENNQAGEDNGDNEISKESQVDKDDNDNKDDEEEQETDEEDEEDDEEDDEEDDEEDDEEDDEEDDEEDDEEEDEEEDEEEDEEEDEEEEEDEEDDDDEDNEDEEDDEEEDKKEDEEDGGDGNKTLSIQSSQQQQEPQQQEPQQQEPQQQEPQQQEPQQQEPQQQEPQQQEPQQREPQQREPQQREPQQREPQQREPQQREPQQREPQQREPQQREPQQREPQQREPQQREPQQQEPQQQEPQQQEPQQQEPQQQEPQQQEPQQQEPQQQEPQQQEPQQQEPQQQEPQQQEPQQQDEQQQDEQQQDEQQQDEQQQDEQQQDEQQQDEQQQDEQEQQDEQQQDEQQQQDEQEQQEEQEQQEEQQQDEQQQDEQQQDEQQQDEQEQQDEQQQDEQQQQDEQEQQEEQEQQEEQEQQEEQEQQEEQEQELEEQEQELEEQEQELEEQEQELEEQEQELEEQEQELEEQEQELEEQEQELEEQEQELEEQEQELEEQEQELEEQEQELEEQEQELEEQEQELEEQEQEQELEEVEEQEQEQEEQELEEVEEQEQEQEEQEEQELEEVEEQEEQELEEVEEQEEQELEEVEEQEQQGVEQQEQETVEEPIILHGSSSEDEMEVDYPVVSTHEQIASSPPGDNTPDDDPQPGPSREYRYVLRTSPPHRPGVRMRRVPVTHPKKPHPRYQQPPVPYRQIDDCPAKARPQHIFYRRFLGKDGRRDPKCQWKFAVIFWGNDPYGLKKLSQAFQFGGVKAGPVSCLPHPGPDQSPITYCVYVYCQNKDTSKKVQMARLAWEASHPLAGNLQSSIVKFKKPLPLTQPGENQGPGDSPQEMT
Beta2AR agonist = agonists of human beta-2 adrenergic receptor inducing internalization; response, % (concentration not given with the values); P07550; 0.43% of 340,000 active; Am2.2-beta2AR cells, FAP receptor internalization, flow cytometry; reference of the scale not given here;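 active means response above a set limit, near 3 SD of response in nonfluorescent compounds, cut at about 42% in these data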;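 further: stock transfer was 100 nL into about 11 µL; a reference agonist was the positive control; negative values mostly stem from fluorescent compounds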
rRNA inh HTS = inhibits bacterial ribosomal RNA function over humanized ribosomes; E. coli WT GFP vs humanized-ribosome RFP mutants, fluorescence, 24 h; stronger effect = lower value; DMSO median 0, no signal -100; GFP signal change (wild-type ribosome), % (concentration not given with the values); 1.6% of 350,000 active; AID 720706;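 active means significant combined selectivity score with lowered wild-type GFP, culture density cut under 30%, mutant RFP and density less affected; inactive means any of these conditions unmet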; further: one replicate is shown; some compounds called inactive have numbers as strong as hits
T cruzi inh = T. cruzi replication inhibition; T. cruzi beta-gal in NIH3T3, luminescence, 90 h; inhibition, % (no concentration beside the values); 1.4% of 300,000 active;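 active means mean inhibition across valid replicates above about 55%, limit read from the data; inconclusive means mean below that limit but half or more replicates reach it; inactive means mean below it, under half of replicates reach it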;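 further: signal also drops with host cell toxicity which is not excluded here; 0% = plate median of DMSO wells and 100% = zero luminescence signal; higher percent means less beta-gal luminescence so fewer parasites; stock transfer was 50 nL into about 50 µL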
Bfl-1 A1 inh = inhibitors of the anti-apoptotic protein A1, read as caspase activation | 0.066% of 330,000 active | caspase activation, % (concentration not given with the values) | MEF A1-2A-BIM cells, Caspase-Glo 3/7 luminescence, 3 h; percent of clofoctol response, vehicle zero;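 active means over half of replicate activation scores above 10%, or exactly half above 10 with the replicate mean above 10; inconclusive means replicate mean below 10 yet half the replicates above 10; inactive means over half of replicates below 10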;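 further: wells of about 30 µL received 50 nL stock; many hits fall short of the cut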
ALR inh = human ALR oxidase inhibition via reduced H2O2; P55789; purified ALR, DTT oxidation, H2O2 HRP-luminol luminescence; inhibition, % (no concentration beside the values); 3.8% of 290,000 active;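 active means mean and each replicate at 75% or more; inconclusive means only one of the two met; inactive means neither met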;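 further: stock transfer was 7.5 nL into about 7.5 µL; 0% = neutral wells and 100% = wells with inactivated enzyme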
Beta apoptosis = blocks beta cell apoptosis; INS-1E cytokine-induced death, ATP luminescence, 48 h; percent of positive-control rescue, neutral wells zero; protection from apoptosis, % (test concentration not listed); 0.8% of 300,000 active;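 active means all replicates at 75% or more, or half of them and the mean; inconclusive means half reach 75% but not the mean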;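 further: 0% = cytokine-treated negative control wells and 100% = positive control rescue; higher means more ATP so stronger rescue from cytokine killing; wells of about 40 µL received 100 nL stock; the first replicate is given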
Calb FLC = C. albicans growth modulation with fluconazole; AID 1979; 0.57% of 300,000 active; C. albicans CaCi-2 (fluconazole-resistant clinical isolate) + fluconazole, Alamar Blue growth, 48 h; growth inhibition, % (concentration not given with the values);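 active means most replicates above 75%; inconclusive means exactly half above 75%; inactive means most below 75%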;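 further: all wells also contain fluconazole at 8 µg/ml as a sub-toxic cotreatment; 0% = median of DMSO wells and 100% = median of geldanamycin control wells; wells of about 8 µL received 7.5 nL stock; the first replicate is given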
rRNA inh HTS OD600 = second read-out of rRNA inh HTS, no call of its own (marks repeat the call); OD600 change, %; measured here: OD600 growth;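 optical density of the mix in the first replicate; 0 = DMSO median and -100 = no signal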
rRNA inh HTS RFP = second read-out of rRNA inh HTS, no call of its own (marks repeat the call); RFP signal change, %; measured here: RFP humanized mutant strains;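 first replicate; 0 = DMSO median and -100 = no signal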
* = called active by the depositor; ? = inconclusive; · = not tested or not shown.

SMILES	LANA-H2B inh	Beta2AR agonist	rRNA inh HTS	rRNA inh HTS OD600	rRNA inh HTS RFP	T cruzi inh	Bfl-1 A1 inh	ALR inh	Beta apoptosis	Calb FLC
CSc1ncc(Cl)c(C(=O)O)n1 (tested in a mixture with another compound)	0.5	1	·	·	·	-3	-0.5	·	5	2
Nc1ccccc1N=Cc1c(O)n(CCC2=CCCCC2)c(=O)[nH]c1=O	-0.1	-3	·	·	·	-9	-0.2	-7	97*	17
CCC(C)(C)n1nnnc1CN1CCC(n2c(C)nc3cc(C(F)(F)F)ccc32)CC1	0.4	3	·	·	·	24	0.5	-2	1	7
Cc1ccc(-c2nc(N3CCOCC3)s[n+]2-c2ccccc2)cc1	-1.7	-9	·	·	·	-4	-0.4	?	0	0
COc1ccc(C(c2ccc(OC)cc2)C(Cl)(Cl)Cl)cc1	1.6	3	-7	-15	1.8	·	0.3	2	-1	·
CC(C(N)=O)N1CC(c2ccc(Cl)cc2)CC1=O (configuration not stated)	0.2	4	·	·	·	2	1.5	-4	-5	·
CS(=O)(=O)c1ccc(C(=O)N2CCC(C(=O)O)(c3ccccc3)CC2)cc1	1.8	-1	4	18	0.3	0	0.4	-2	-3	-7
Cc1cccc(NC(=O)CSc2nnc([C@@H](N)Cc3c[nH]c4ccccc34)o2)c1C	-0.4	-1	·	·	·	10	0.6	48	-4	18
N/C(=N\[N+](=O)[O-])N/N=C/c1ccc(O)cc1	-0.7	19	-5	9	-0.8	-3	-14	97*	-4	-21
CC(=O)Nc1ccccc1OC(=O)N(C)C	-1.6	9	·	·	·	-7	0.4	-8	-10	-8
CCCC1(CCC)C(=O)NC(=NCc2ccccc2)NC1=O	-1.3	2	·	·	·	-3	0.2	2	8	-8
CN1C(=O)C(O)N=C(c2ccccc2)c2ccccc21 (configuration not stated)	-3.7	5	5	12	-1.3	6	-0.5	5	-1	5
O=C1Nc2ccccc2Sc2ccccc21	-0.5	-7	-6	-9	1.1	-14	0.1	-9	-2	-11
O=C1NC(=O)C(CCc2ccncc2)(CCc2ccncc2)C(=O)N1Cc1ccccc1	7.3	1	2	-5	-2.2	-22	-0.3	-13	6	11
O=c1c2ccccc2nc(Cc2ccccc2)n1-c1ccc(O)cc1	-4.1	-15	-27	-39	-10	-2	1.0	-4	·	20
CN(C(=O)Oc1cccc2cccnc12)c1ccccc1	0.0	-13	·	·	·	2	0.1	-2	·	11
CCOC(=O)C1(Cc2ccc(Cl)cc2)CCN(C(C)CCn2cccn2)CC1 (configuration not stated)	3.2	8	-1	-5	-0.8	50	0.1	-3	4	-14
COc1ccc(Cn2c(O)c(/C=N/NC(=O)c3ccncc3)c(=O)[nH]c2=O)cc1	-1.0	6	1	-4	1.6	-32	-1.0	-20	-1	2
O=C(Cc1ccccc1)NC(Oc1ccccc1Cl)C(Cl)(Cl)Cl (configuration not stated)	-0.2	9	·	·	·	-6	0.1	2	-6	-24
C/C=C1/C[C@@H](C)[C@](O)(CO)C(=O)OCC2=CCN3CC[C@@H](OC1=O)[C@@H]23	-0.3	-7	·	·	·	·	0.4	6	13	·
CCOC(=O)C(O)(c1ccc(N(C)C(=O)COc2ccccc2)cc1)C(F)(F)F (configuration not stated)	-0.9	3	·	·	·	-6	-0.8	-4	-4	-3
Cc1cccc(NP(=O)(Oc2ccccc2)Oc2ccccc2)c1C	0.7	7	-16	-30	0.7	-2	1.0	·	0	3
O=C(CCn1c(=O)oc2ccccc21)N1CCC2(CC1)OCCO2	-1.1	1	·	·	·	-9	0.7	-18	-1	-10
O=C(N/N=C/c1c(O)n(Cc2ccc(F)cc2)c(=O)[nH]c1=O)c1ccccc1O	-0.8	-4	2	3	-4.4	-14	-0.9	97*	-2	-3
CN1C(=O)C(=Cc2ccc(SC3CCCCC3)o2)C(=O)N(C)C1=O	0.4	10	·	·	·	-3	-0.7	88*	-1	-7

The listing continues:
SMILES	LANA-H2B inh	Beta2AR agonist	rRNA inh HTS	rRNA inh HTS OD600	rRNA inh HTS RFP	T cruzi inh	Bfl-1 A1 inh	ALR inh	Beta apoptosis	Calb FLC
CC(NS(C)(=O)=O)c1nnc2n1-c1ccc(Br)cc1C(c1ccccc1Cl)=NC2 (configuration not stated)	-0.7	-6	-4	1	-3.5	2	0.1	·	-3	-4
CC1=NN(c2ccccc2)C(=O)C1/C=C1/C(=O)NC(=O)N(c2cc(C)cc(C)c2)C1=O (configuration not stated)	-2.1	4	·	·	·	2	-2.0	87*	1	-9
C=C1[C@@H](OC(C)=O)[C@]23C[C@@H]1[C@@H](OC(C)=O)CC2[C@]12C4C[C@H]3[C@H]1N(CC)C[C@]4(C)CC[C@@H]2O (some centres not stated)	-5.0	3	·	·	·	-3	0.3	-6	-2	12
CCOc1c(Cl)cc(CNC(C)C(O)c2ccccc2)cc1OC (configuration not stated)	0.5	7	13	9	-2.4	-3	-0.6	0	-3	-10
FC(F)(F)/C(=N\P(=S)(N1CCOCC1)N1CCOCC1)N1CCOCC1	-1.0	1	11	1	-7.4	-11	0.0	-11	-4	3
CC12CN3CC(c4ccccc4)(CN(C1)C31CCCCC1)C2=O	-0.9	5	·	·	·	-24	-0.4	-7	-8	14
CCOc1cc2c(cc1OCC)-n1cccc1C(c1ccc(C(C)C)cc1)NC2 (configuration not stated)	1.0	27	-57	-81	-18	48	-0.1	1	28	-2
COCCNC(=O)CN1C2CCC1CC(O)(c1cccnc1)C2 (configuration not stated)	3.1	1	5	7	0.0	-7	-0.3	·	-11	1
O=C(Nc1cccnc1)c1c(O)c2c(n(Cc3ccccc3)c1=O)CCCC2	-3.5	0	·	·	·	27	0.8	·	11	-8
O=C1NC(=O)C(Sc2ccccc2[N+](=O)[O-])C(=O)N1	5.3	-6	7	15	0.3	-4	-0.5	11	-6	-10
O=c1c2ccccc2nc(-c2ccccc2)n1-c1ccc(O)cc1	2.5	-20	1	-3	-0.9	9	-0.6	3	13	-6
Cc1ncc(CN2CCCC(C(=O)c3cccc(OC(C)C)c3)C2)s1 (configuration not stated)	5.2	-1	0	-8	1.5	47	0.4	-10	-4	-4
Cc1nn(Cc2ccccc2Cl)c(Cl)c1C(=O)OCC(=O)NC(=O)NC1CCCCC1	4.7	-1	1	7	2.1	0	0.6	·	-5	4
O=C(c1cc(C(=O)NCc2ccccc2)c(=O)n(Cc2ccccc2)c1)c1cc(Br)ccc1O	2.1	9	·	·	·	27	0.2	3	32	-4
CC(C)=CCc1c(O)cc2c(c1O)C(=O)CC(c1ccc(O)cc1)O2 (configuration not stated)	4.4	3	·	·	·	-10	-0.1	-6	·	3
Cc1cccnc1-n1c(CN2C(=O)c3ccccc3C2=O)nc2ccccc2c1=O	1.3	-1	·	·	·	-4	0.1	-5	0	-10
CCCC(C)n1[nH]c(=O)c2c1NC(=O)CSC2c1ccc(OC)c(OC)c1 (configuration not stated)	2.2	-2	·	·	·	-13	0.4	2	2	-10
CN(c1ccccc1)c1ccc([N+](=O)[O-])c2nonc12	-5.0	0	-8.4*	-3.7*	-4.2*	-9	0.2	0	-1	2
O=C(COc1ccc(Cl)cc1)N(c1ccccc1Cl)C1CN2CCC1CC2 (configuration not stated)	-2.9	4	-9	-10	3.5	44	0.1	-41	-6	0
CC1=CC(=O)C2=C(C)CC(O)C3C(C)C(=O)OC3C12 (configuration not stated)	2.4	-1	·	·	·	3	-0.9	-8	-7	-1
O=C(c1cn(Cc2ccccc2F)c2ncccc12)C(F)(F)F	0.8	-2	3	10	-1.7	-5	1.5	·	-1	-4
NC(Cc1ccccc1)c1nc(-c2ccccc2)no1 (configuration not stated)	0.5	0	-2	-5	-4.3	-14	-0.8	0	-9	-5
CSc1nc(N)c(N=Nc2ccc([As](=O)(O)O)cc2)c(=O)[nH]1	-6.3	-2	15	14	2.8	18	3.7	24	36	-1
CN(C)C(=O)Oc1ccc(OC(=O)N(C)C)cc1	0.8	6	8	-6	0.0	-31	0.4	-3	-14	-14
COC(=O)C1=C(c2cccc(OCc3ccccc3)c2)C[C@@H]2CC[C@H]1N2C(=O)NCCc1ccc(F)cc1	0.7	-6	11	1	1.8	·	0.3	-8	2	·

(next part)
SMILES	LANA-H2B inh	Beta2AR agonist	rRNA inh HTS	rRNA inh HTS OD600	rRNA inh HTS RFP	T cruzi inh	Bfl-1 A1 inh	ALR inh	Beta apoptosis	Calb FLC
C=CCn1cc(C=C2C(=O)N(C)C(=O)N(C)C2=O)c2ccccc21	-0.2	1	12	6	1.6	1	-0.4	7	1	-9
CC1CN(c2ccc([N+](=O)[O-])cc2Cl)CCN1 (configuration not stated)	-6.0	6	·	·	·	12	-1.0	6	-5	-1
CC[N+]12CCC(CC1)C(=C(c1ccccc1)c1ccccc1)C2	3.1	5	·	·	·	-4	-0.1	-7	-9	1
COC(=O)C1=C(c2ccc(F)cc2OCc2ccccc2)C[C@@H]2CC[C@H]1N2C(=O)NCc1cc(C)oc1C(F)(F)F	5.6	14	·	·	·	·	-0.9	-6	-2	·
O=c1c2ccccc2nc(/C=C\c2ccccc2[N+](=O)[O-])n1-c1ccccc1O	1.3	19	-29*	-18*	7.0*	29	-0.2	·	3	22
O=C1C2CCCN2C(c2cccnc2)N1c1cccc(Cl)c1 (configuration not stated)	-5.3	-6	0	0	2.3	-15	?	·	-6	0
CC(Cc1ccccc1)NC(=O)C(c1ccc(N)cc1)c1ccc(N)cc1 (configuration not stated)	1.3	1	7	7	0.4	-2	0.5	9	·	7
NC(=S)N/N=C/c1coc2ccccc2c1=O	2.2	-8	0	2	-1.4	-17	0.4	-1	-5	-14
CN1CC(C(=O)c2ccc(F)cc2)C(c2ccc(F)cc2)C1 (configuration not stated)	-2.9	-2	0	-5	-1.1	-1	-0.1	2	-9	-35
O=C1CC(=O)N(c2cccc(F)c2)C(=O)N1	-2.4	3	6	9	1.3	0	0.0	-6	-6	27
Cc1ccc(S(=O)(=O)CC(=O)c2cc(C)c(OC(=O)N(C)C)c(C)c2)cc1	5.4	8	-21	-17	-2.8	10	-0.7	6	-6	-6
CC(C)Cc1nc(N2CCNCC2)c(C#N)c2c1CCC2	-0.1	7	-21*	-13*	1.2*	·	-0.6	4	·	-25
COc1cccc(OC)c1C1=NCC(=O)Nc2c1oc1ccc(Br)cc21	-2.5	6	-28*	-35*	-7.4*	0	1.9	·	26	2
COC(=O)C1=C(c2cccc(OCc3ccccc3)c2)C[C@@H]2CC[C@H]1N2C(=O)NCc1cccc(F)c1	0.2	54*	-6	0	7.0	·	-0.1	-7	5	·
CCCCn1c(O)c(C(CC)=Nc2ccc(OCC)cc2)c(=O)[nH]c1=O	2.8	-3	·	·	·	8	-0.3	-6	2	-2
CCCCP(=O)(O)c1ccccc1	2.6	5	·	·	·	2	0.2	-12	1	2
O=C(C1CC(=O)N(C2CCCCC2)C1)N1CCC2(CC1)OCCO2 (configuration not stated)	-0.6	-9	·	·	·	2	-0.1	-7	-5	0

Assay outcomes (PubChem BioAssay)

A portion of the library; count on the stated rates, not on these rows.
